# Mtb H37Rv = M. tuberculosis H37Rv growth inhibitors, H37Rv strain (AID 1626) | M. tuberculosis H37Rv growth inhibition; higher % means a stronger effect | inhibition, % at 10 µM, or IC50 in µM where a hit was titrated | 220,000 tested, 0.95% active;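 active = confirmed in a dose series; inconclusive = inhibition above 80% but not taken into the dose series; inactive = below 80% or under 30% at every dose of the series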;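 also: bacteria incubated seven days before Alamar blue readout; 0% = bacteria only wells and 100% = bacteria with antibiotic wells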
# Arbovirus inh = antivirals against arbovirus infection, primary screen, cell-based, full library, 10K replicate subset; arbovirus infection cell-based antiviral screen; inhibition, % at 10 µM; 200,000 tested, 0.37% active; AID 1251, 2008;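 active = inhibition from about 30%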;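 also: bluetongue infection of BSR cells; cell survival read as ATP light after 72 h; 0% = infected wells without compound and 100% = uninfected wells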
# RecA splice inh = Mtb RecA intein splicing inhibitors, primary screen, biochemical, fluorescence, HTS; 290,000 tested, 0.75% active; AID 2221, 2009; Protein RecA (Mycobacterium tuberculosis (strain ATCC 25618 / H37Rv)), P9WHJ3; cell-free RecA intein splicing; inhibition, %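 (about 9 µM by stock and volumes)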; in the data active = inhibition above about 30%; inconclusive = no clear call, values can overlap the other calls;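 also: 0% = vehicle wells and 100% = reference inhibitor control wells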
# Target sequence (P9WHJ3 whole entry, looked up, canonical isoform): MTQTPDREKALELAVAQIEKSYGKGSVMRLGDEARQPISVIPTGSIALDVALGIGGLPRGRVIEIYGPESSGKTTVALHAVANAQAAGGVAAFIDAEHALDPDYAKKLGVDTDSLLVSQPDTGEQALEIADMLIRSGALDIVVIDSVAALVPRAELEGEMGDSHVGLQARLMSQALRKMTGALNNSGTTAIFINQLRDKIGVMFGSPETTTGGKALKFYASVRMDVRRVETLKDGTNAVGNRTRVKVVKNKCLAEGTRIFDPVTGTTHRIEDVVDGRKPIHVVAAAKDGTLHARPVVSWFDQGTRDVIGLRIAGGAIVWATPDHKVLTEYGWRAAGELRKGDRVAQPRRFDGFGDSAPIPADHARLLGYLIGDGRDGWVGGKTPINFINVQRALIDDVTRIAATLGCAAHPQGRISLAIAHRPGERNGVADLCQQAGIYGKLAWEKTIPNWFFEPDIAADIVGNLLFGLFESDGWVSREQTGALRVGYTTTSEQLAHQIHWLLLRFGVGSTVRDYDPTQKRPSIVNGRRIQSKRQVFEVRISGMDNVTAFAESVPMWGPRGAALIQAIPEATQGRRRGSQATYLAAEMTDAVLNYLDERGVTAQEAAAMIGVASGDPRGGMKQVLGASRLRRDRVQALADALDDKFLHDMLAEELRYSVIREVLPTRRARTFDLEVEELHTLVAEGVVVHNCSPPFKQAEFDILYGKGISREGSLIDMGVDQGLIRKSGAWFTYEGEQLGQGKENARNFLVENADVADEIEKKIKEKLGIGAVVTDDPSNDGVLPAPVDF
# Mtb bLac sens = beta-lactam sensitization of Mtb H37Rv, H37Rv; M. tuberculosis H37Rv growth with meropenem, percent inhibition; hits of this screen are not shown here; AID 434955, 2010; inhibition, % at 25 µM; 330,000 tested, 0.27% active;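 active = about 74% or more and at least 40 points above the plate without the antibiotic, then above 30% in a dose series; inconclusive = first-round hits that could not be retested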;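 also: growth measured after seven days incubation then overnight dye step; 0% = bacteria only wells and 100% = bacteria with antibiotic; twin plates without the antibiotic show which effects depend on it; some results filed as inactive read as strong as hits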
# YopH PTP inh = YopH tyrosine phosphatase inhibitors, primary screen, biochemical, fluorescence Ex485/Em525 | 140,000 tested, 0.16% active | inhibition, %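 (about 10 µM by stock and volumes)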 | AID 898, 2007;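 active = inhibition of 50% or more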;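 also: controls were vehicle for no effect and minimum signal wells for full effect; inactives centre near -20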
# Arbovirus inh repeat = second read-out of Arbovirus inh, no call of its own (marks repeat the call); inhibition, %; measured here: 10K subset replicate screen; many hits read low in the repeat;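 first of two repeat runs on a subset; 0% = infected and 100% = uninfected wells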
# Starred values were filed as active, the others as inactive; ? = inconclusive; · = no result given. Only part of the results is shown; count on the stated rates, not on these rows.
SMILES,Mtb H37Rv,Arbovirus inh,RecA splice inh,Mtb bLac sens,YopH PTP inh,others
CC(=O)NC1=NN(C(C)=O)C(c2ccccn2)S1 (stereo unspecified),-5%,4,-0.1,2,·,
CCC(C(=O)NCc1ccccc1OC)c1ccccc1 (stereo unspecified),1%,-3,2.4,-9,·,
COc1ccc(Nc2nnc(-c3ccc(C)cc3)c3ccccc23)cc1C(=O)N1CCCCC1,13%,-37,0.2,3,-29,
Fc1cccc(Cl)c1CNCCCSc1ncccn1,·,·,-5.3,-4,·,
CC(C)CN(CCCNC(=O)CN1C(=O)COc2ccc(S(=O)(=O)N3CCC(C)CC3)cc21)CC(C)C,·,·,0.3,2,·,
Cc1ccc(OCCN2C(=O)OC(C)(C)C2(C)O)cc1 (stereo unspecified),0%,7,0.7,6,-10,
O=C(C[n+]1cc(Br)cc(Br)c1)c1ccc(Cl)cc1,·,·,8.5,?,·,
CN(C)C(=O)COC(=O)c1ccccc1Nc1ccc(SC(F)F)cc1,4%,33*,-1.5,3,-15,
CCCNC(=O)c1noc2c1CCc1ccccc1-2,25%,-5,3.3,90,-23,Arbovirus inh repeat=-6
COc1ccc(/C=N/NC(=O)CNC(=O)c2ccc(S(=O)(=O)N3CCCC3)cc2)c(OC)c1,-3%,-1,-0.5,2,·,
Cc1cc(C)n(C(=O)c2ccc(S(=O)(=O)N3CCCC3)cc2)n1,-11%,-1,4.7,0,-20,
COc1nnc(-c2ccc(N3CCOCC3)c(NC(=O)C3CCCCC3)c2)c2ccccc12,-5%,16,1.2,3,-23,
COc1cccc(CNc2ncc(C(=O)Nc3cc(OC)c(OC)c(OC)c3)c(C)n2)c1,·,·,1.4,1,·,
CCCn1c(SCCc2ccccc2)nc2c1c(=O)[nH]c(=O)n2C,6%,-7,13,14,-27,
Cc1ccc(C(=O)N2CCN(c3ccc(NC(=O)CSc4ccc(Cl)cc4)cc3)CC2)cc1,-7%,-8,-2.2,4,-34,
COc1ccc(C(=O)NNC(=O)C2(C)CC2(Br)Br)cc1 (stereo unspecified),·,·,0.7,3,·,
O=C(CNCCC1=CCCCC1)Nc1ccccc1N1CCCCC1,6%,-39,9.0,-11,10,
COc1ccc(/C=N/NC(=S)NCCc2ccccc2)cc1,·,·,8.8,0,·,
O=C1/C(=C\c2ccc3c(c2)OCO3)N2CCC1CC2,6%,1,-0.3,·,1,
COc1ccc(C(=O)N(CC2CCCO2)C(C(=O)NC2CCCC2)c2ccc(Cl)cc2)cc1OC (stereo unspecified),-5%,1,-0.6,4,-31,
O=C(O)c1ccc(F)c(S(=O)(=O)Nc2ccccc2Cl)c1,-1%,-1,·,4,-148,
O=C(Nc1nnc(C2CC2)s1)c1cc(S(=O)(=O)N2CCN(c3ccccc3)CC2)ccc1Cl,3%,-4,4.3,-9,-145,
Cc1ccc(C)c(Cn2nc(-c3ccccc3)ccc2=O)c1,·,·,15,82,·,
CCCCCC(=O)Nc1ccc2ccccc2c1,<0.2µM*,4,14,97,1,
Cc1cc(OCC(=O)NCc2ccncc2)c2c(C)cc(=O)oc2c1,·,·,-1.2,-3,·,
# Continued.
SMILES,Mtb H37Rv,Arbovirus inh,RecA splice inh,Mtb bLac sens,YopH PTP inh,others
O=C(OCc1nnc(-c2ccccc2)o1)c1cc(=O)c2ccccc2o1,-3%,11,0.6,4,-30,
Cc1csc(C(C#N)C(=O)c2cc3ccccc3o2)n1 (stereo unspecified),26%,-4,·,29,0,Arbovirus inh repeat=-5
COc1ccccc1N1C(=O)CSC1=NC(=O)c1ccccc1,-4%,·,1.1,31,·,
COc1ccc(NC(=O)c2cc(N3C(=O)C4C5CCC(C5)C4C3=O)ccc2Cl)c(OC)c1 (stereo unspecified),·,·,5.5,-7,·,
CCCCN1C(=O)CCC(C(=O)O)C1c1ccc([N+](=O)[O-])cc1 (stereo unspecified),·,·,-2.6,-8,·,
CC(=O)c1c(C)[nH]c(C(=O)N2CCCC(C)C2)c1C (stereo unspecified),·,·,0.1,-5,·,
O=C(NCCCN1CCOCC1)c1ccccc1-c1ccccc1,-3%,9,3.0,0,-14,
Cc1ccc(C(=O)/C=C/Nc2ccc3c(c2)OCO3)cc1,?,-35,-3.9,82,-27,
O=C1SC(SC(=Nc2ccccc2)Nc2ccccc2)C(=O)N1c1ccccc1 (stereo unspecified),7%,2,7.5,12,-7,
CCCc1nnc(SCC(=O)Nc2nc(C)cs2)n1CCOC,·,·,-3.6,0,·,
COc1ccc2sc(SCCCS(=O)(=O)O)[n+](CCCS(=O)(=O)[O-])c2c1,-10%,-5,-0.3,5,-31,
Cc1cc(C(=O)OCC(=O)Nc2cc(S(=O)(=O)N3CCOCC3)ccc2Cl)c(C)o1,-1%,0,·,-3,-12,
Nc1cc(=O)[nH]c(=O)n1CCc1ccccc1,·,·,-4.3,-4,·,
Cc1nc2ccccc2n1CC(O)COc1ccc(Br)cc1 (stereo unspecified),4%,15,3.3,54,·,
CCCCC(=O)Nc1ccc(C(=O)Nc2cc(C(F)(F)F)ccc2Cl)cc1,21%,1,-0.3,7,-12,
CCOc1ncccc1C(=O)Nc1cccc(-c2nnc3n2CCCCC3)c1,-5%,7,4.3,-2,·,
Cc1c(C(=O)N(Cc2ccccc2)Cc2cccnc2)cnn1-c1ccc(F)cc1,5%,·,3.0,1,·,
C/C(=N\NC(=O)Cc1cccc2ccccc12)c1ccncc1,0%,9,7.3,-3,-31,
CCc1nn(C(C)C(=O)NCc2cccc(Cl)c2)c(=O)c2cc3occc3n12 (stereo unspecified),·,·,0.4,-3,·,
CCc1ccc(OCc2nnc(NC(=O)c3cccs3)s2)cc1,1%,2,-0.8,-9,-17,
COc1cc(Cl)ccc1NC(=S)N(CCN1CCOCC1)C1CCN(C(C)=O)CC1,1%,3,2.1,-10,·,
COc1cccc(CNC(=O)[C@H](CCSC)NC(=O)N2CCn3c2nc2ccccc23)c1,·,·,-3.0,1,·,
O=C(COC(=O)c1ccccc1C(=O)N1CCN(c2ccccc2)CC1)NCc1ccccc1,4%,6,2.1,4,·,
O=C(CN1CCN(Cc2ccccc2Cl)C1=O)NC1CCCCCC1,-3%,10,3.5,-3,-13,
COc1ccc(N(C(=O)Cn2nnc3ccccc32)C2(C(=O)NC3CCCC3)CCCCC2)cc1,9%,-15,1.2,3,-8,
# New compounds follow
SMILES,Mtb H37Rv,Arbovirus inh,RecA splice inh,Mtb bLac sens,YopH PTP inh,others
CC(C)(C)n1nnnc1C(c1cccnc1)N1CCN(c2cccc(C(F)(F)F)c2)CC1 (stereo unspecified),-15%,9,5.5,5,-106,
O=C1CN(C(=O)/C=C/c2ccccc2F)c2ccccc2N1,6%,2,3.3,-8,·,
Cc1c(CC(=O)NCCCCCC(=O)O)c(=O)oc2c(C)c3oc4c(c3cc12)CCCC4,·,·,-1.7,-1,·,
C[n+]1cc[nH]c1SCC(=O)c1ccccc1,3%,-2,0.5,3,-33,
Cc1cc2ncc(S(=O)(=O)C(C)(C)C)c(N)n2n1,4%,0,-2.2,0,·,
COc1ccc2c(COC(=O)CCS(=O)(=O)c3ccccc3)cc(=O)oc2c1,-7%,2,-4.3,-12,·,
CC(=O)Nc1ccc(S(=O)(=O)c2cc(O)ccc2O)cc1,·,·,-11,2,·,
COc1ccc(C(=O)OCCCN(C)C)cc1OC,-11%,13,-1.1,5,-27,
CC(C)CNC(=O)CN(C)S(=O)(=O)c1ccc(F)cc1,-2%,1,-0.6,-7,-11,
Cc1ccc(C(=O)Nc2ccc3ncccc3c2)cc1,·,·,3.6,-4,·,
COc1cccc2c3c(c(=O)[nH]c12)CC(C)(C)O3,·,·,0.4,4,·,
CC(C)NC(=O)c1c2c(nc3ccccc13)CCCC2,0%,-2,2.1,-13,27,
Cn1c(Nc2ccc(F)cc2)nc2ccccc21,·,·,1.7,-2,·,
O=C(CN1C(=O)S/C(=C\c2ccccc2F)C1=O)NC1C=CS(=O)(=O)C1 (stereo unspecified),·,·,-1.4,-2,·,
Cc1ccccc1OCC(=O)NC(=S)Nc1ccc(N2CCCC2)cc1,33%,1,-1.0,-4,·,
CC(CN1CCOCC1)OC(=O)c1ccc2c(c1)OCCO2 (stereo unspecified),0%,4,0.9,-4,-37,
Cc1csc(NC(=O)c2ccc(Br)s2)n1,·,·,3.3,-7,·,
CCOC(=O)c1sc(NC(=O)c2ccncc2)c(C#N)c1C,-9%,19,2.0,9,-29,
COc1ccc(N2CCN(S(=O)(=O)c3cc(-c4cc(C)no4)ccc3C(C)C)CC2)cc1,·,·,1.2,0,·,
COc1ccc(C(=O)C2CCCN(C(=O)c3ccc4cc[nH]c4c3)C2)c(C)c1 (stereo unspecified),-1%,17,3.9,-7,·,
COc1ccccc1CN1[C@@H](CC(=O)O)c2cc(F)ccc2S1(=O)=O,0%,·,-0.1,3,·,
Cn1cc(C(=O)N/N=C/c2c(O)ccc3ccccc23)ccc1=O,3%,-22,-19,4,·,
Nc1nc(NC(=O)c2ccc(Cl)cc2)nn1-c1ccccc1,-6%,-1,2.3,0,-19,
Cc1cc2c(s1)NC(=O)CN=C2c1cccs1,-2%,-6,1.1,10,3,
OC1(c2ccc3ccccc3c2)CCN(Cc2ccccc2)C1 (stereo unspecified),11%,0,0.9,-9,-12,
# Following part.
SMILES,Mtb H37Rv,Arbovirus inh,RecA splice inh,Mtb bLac sens,YopH PTP inh,others
O=C(CSc1nc2ccccc2c(=O)[nH]1)N1CCN(S(=O)(=O)c2ccccc2)CC1,-5%,2,-0.1,0,-14,
Cc1ccc(CNS(=O)(=O)c2c(C)[nH]c(=O)[nH]c2=O)cc1,·,·,-0.5,5,·,
Cc1ccc(NC(=O)COC(=O)C2CC(=O)N(Cc3ccccc3)C2)cc1F (stereo unspecified),-4%,8,-5.8,0,·,
O=C(NCCN1CCCC1)c1ccc2c(c1)N(Cc1ccc(F)cc1)C(=O)c1ccccc1S2=O (stereo unspecified),-5%,-17,1.1,-6,-22,
C=C(C)c1cccc(C(C)(C)NC(=O)N2CCOCC2)c1,-12%,0,-1.4,-9,7,
CCC(C)(C)n1nnnc1C(c1ccc(C)cc1)N(Cc1ccco1)Cc1cccs1 (stereo unspecified),16%,5,6.4,-2,-13,
Cc1ccc(C(=O)NC(=S)NCc2cccnc2)cc1C,3%,10,5.1,0,·,
Nc1cccc2c(=O)c3ccccc3[nH]c12,·,·,-102,15,·,
COc1ccc2nc(NC(=O)C3CCCN(S(=O)(=O)c4cccc5nonc45)C3)sc2c1 (stereo unspecified),76%,-7,-2.6,0,16,
O=C(c1ccc2c(c1)OCCO2)C1CCN(S(=O)(=O)c2ccc(F)cc2)CC1,-3%,-8,-6.1,-10,-38,
Cc1ccc(CNC(=O)C2CCCCC2C(=O)O)cc1 (stereo unspecified),-5%,2,-2.0,-4,-27,
CCc1ccc(S(=O)(=O)/N=C2/C=C(Sc3ncn[nH]3)C(=O)c3ccccc32)cc1,1%,-37,·,12,93*,
CCc1ccccc1NC(=O)CSc1nnc([C@@H](N)Cc2c[nH]c3ccccc23)o1,3%,1,3.0,8,-10,
Cc1ncn2cc(-c3ccc(Cl)cc3Cl)[nH]c(=O)c12,11%,·,-1.0,-9,·,
COc1cc(OC)c(OC)cc1/C=C1\CCC(C2CCCC2)C1=O (stereo unspecified),5%,8,-1.7,·,·,
CCN(CC(=O)Nc1ccc(S(=O)(=O)N2CCCCC2)cc1)Cc1ccccc1,·,·,1.8,-1,·,
O=C(c1ccc(CS(=O)(=O)c2ccc(Br)cc2)o1)N1CCN(C2CCCCC2)CC1,·,7,0.1,-1,2,Arbovirus inh repeat=-1
